Vaccinia Venus = qHTS for Stage-Specific Inhibitors of Vaccinia Orthopoxvirus: Venus Reporter Primary qHTS | Vaccinia virus Venus reporter expression, fluorescence | Potency, µM (titrated, usually from 36.5 µM), for the others: at the highest dose activity change, negative = inhibition, actives largely listed as inhibitors | 330,000 compounds, 0.46% hits | AID 720580, 2013; active means well fitted inhibition curve with a large enough effect; inconclusive means small, poorly fitted or top-dose-only effect; inactive means no such curve, though single readings can be large or run the other way; tested in A549 cells; further: nearly all actives have a fitted effect of over 30% in size; inactives centre near -10
VACV mCherry inh = qHTS for Stage-Specific Inhibitors of Vaccinia Orthopoxvirus: mCherry Reporter Primary qHTS | Potency, µM (doses to about 36.5 µM), inactives show at the highest dose activity change, negative = inhibition, hits mostly inhibitors | 310,000 compounds, 0.63% hits | Vaccinia virus mCherry reporter infection, fluorescence; about a quarter of the inactives have no number | AID 720579, 2013; active = well fitted inhibition curve with a large enough effect; inconclusive = small, poorly fitted or top-dose-only effect; inactive = no such curve, though single readings can be large or run the other way; tested in A549 cells; further: nearly all actives have a fitted effect of over 35% in size; inactives centre near -10
* hit, by the source's call; i = inactive; ? = inconclusive; · = no result given; & = joins results of further samples; [ ] = another dose, or the depositor's remark. On the % scale 0 is the no-effect control and ±100 the full control effect; potency means the concentration at half of the fitted maximal effect.

SMILES | Vaccinia Venus | VACV mCherry inh
O=S1(=O)CCC(S(=O)(=O)N2CCCCCC2)C1 (configuration not stated) | -3% | -10%
CCCC(c1nnnn1CCc1ccccc1)N1CCN(C2CCCC2)CC1 (configuration not stated) | -10% | -26%
COc1cc(C(O)c2nc(-c3ccc(C)c(C)c3)cs2)ccc1F (configuration not stated) | -14% | i
COc1ccccc1NS(=O)(=O)c1cccc(NS(=O)(=O)c2cc(C(=O)O)ccc2OC)c1 | -6% | -13%
O=C(Nc1cc(Cl)ccc1N1CCOCC1)c1ccc(F)c(S(=O)(=O)N2CCOCC2)c1 | -10% | -16%
CC(=O)N1CCN(C(=S)NC(=O)c2ccc(S(=O)(=O)N3CCOCC3)cc2)CC1 | 1% | -15%
COc1ccc(-c2cc(C(F)(F)F)n3nc(C(=O)Nc4cccc(Cl)c4C)cc3n2)cc1 | 1% | -9%
Nc1ccccc1-c1ccc([N+](=O)[O-])cc1 | -20% | ?

(list continues)
SMILES | Vaccinia Venus | VACV mCherry inh
COC(=O)[C@H]1C[C@H](C(=O)O)[C@@H](C)C1(C)C | -5% | -16%
O=C(Nc1cccc(C(=O)N2CCOCC2)c1)c1cccnc1 | -6% | i
Clc1ccc(OCc2cn3cccnc3n2)c2ncccc12 | -21% | -28%
CC[N+](C)(C)c1ccc(/C=C/c2ccncc2)cc1 | i | 140%[activator]
COc1cc2c(cc1OC)CN(C(=O)CN1C(=O)NC3(CCCCC3C)C1=O)CC2 (configuration not stated) | -19% | -19%
Cc1ccc(NC(=O)NCc2ccc3c(c2)OCO3)cc1C | 0% | i
Cc1cn2c(=O)cc(COC(=O)c3cccc(NC(=O)c4ccccc4C)c3)nc2s1 | -12% | i
C=CCN1C(=O)/C(=C2/Sc3ccccc3N2CCCS(=O)(=O)O)SC1=S | -15% | -10%

Next part
SMILES | Vaccinia Venus | VACV mCherry inh
CC(C)(C)OC(=O)N1CCC(c2c(C(=O)N3CCC(c4ccccc4)C3)cnn2-c2ccc(Cl)cc2)CC1 (configuration not stated) | -13% | -12%
CCC(CC)C(=O)NCc1cccnc1 | -14% | 0%
c1ccc(Cn2nnnc2C(c2ccccc2)N2CCN(Cc3ccncc3)CC2)cc1 (configuration not stated) | -14% | -6%
C[C@@H]1CN([C@H](C)CO)C(=O)c2c(c3ccccc3n2C)-c2ccccc2CO[C@H]1CN(C)Cc1ccc(-c2ccccc2)cc1 | ? | -23%
CCC(=O)c1ccc(OCC(=O)OCC(=O)Nc2ccc3c(c2)OCCO3)cc1 | -8% | i
CSc1ccc(CN2CCOc3ccc(CN4CCCCC4CO)cc3C2)cc1 (configuration not stated) | -6% | -8%
O=C(COc1ccc([N+](=O)[O-])cc1)Nc1ccc2c(c1)nc1n2CCOC1 | -5%[7.34 µM] | -4%[7.34 µM]
O=C(NC(=S)Nc1ccccc1Cl)c1csnn1 | 21% | 9%

The list goes on:
SMILES | Vaccinia Venus | VACV mCherry inh
CCOc1ccccc1NC(=O)c1c(NCc2sccc2C)sc2c1CCC(C)C2 (configuration not stated) | -9% | -12%
C[C@H](CO)N1C[C@H](C)[C@@H](CN(C)C)Oc2c(NS(=O)(=O)c3cn(C)cn3)cccc2C1=O | -1% | i
Cc1ccc(CCNC(=O)CCCc2nnc3n(C)c(=O)c4sccc4n23)cc1 | 0% | 6%
CCC(C)c1ccccc1N1CC(C(=O)N2CCN(S(=O)(=O)c3ccccc3Br)CC2)CC1=O (configuration not stated) | -12% | -9%
COc1cccc(NC(=O)CN2CCSc3ccccc32)c1 | -10% | -13%
COc1ccc(C(=O)Nc2ccc(N(C)Cc3ccccc3)c(C(=O)O)c2)cc1 | -6% | -10%
CCc1cccc(CC)c1NC(=O)CO/N=C(\C)c1cccs1 | -13% | -19%
CSc1ccccc1NC(=O)c1onc(C)c1Cl | -9% | i

Continuation.
SMILES | Vaccinia Venus | VACV mCherry inh
O=C(/C=C/c1ccco1)NC(=S)Nc1ccc(Cl)cn1 | 25% | -4%
CC(C)CC(NC(=O)C(CC(C)C)NC(=O)OC(C)(C)C)C(N)=O (configuration not stated) | -10% | ·
CC1C(=O)N2CCCc3cc(NC(=O)C4CCCCC4)cc1c32 (configuration not stated) | -3% | -16%
CC(=O)N1CCN(CC(=O)Nc2c(Cl)cc(Cl)cc2Cl)CC1 | -11% | 0%
CCC(CC)C(=O)Nc1cccc(C(=O)NCc2ccco2)c1 | -9% | -9%
O=C(CN1CCN(c2ccccc2)CC1)N1CCN(c2ccccc2)CC1 | -7% | -14%
CCOc1ccccc1C(=O)NC(C)c1ccc(-n2ccnc2)cc1 (configuration not stated) | -21% | -17%
COc1ccccc1C(c1nnnn1C(C)(C)C)N1CCN(C(=O)c2ccco2)CC1 (configuration not stated) | ? | ·

The listing continues:
SMILES | Vaccinia Venus | VACV mCherry inh
CN(C)CC(CCC(CN(C)C)C(O)(c1ccccc1)c1ccccc1)C(O)(c1ccccc1)c1ccccc1 (configuration not stated) | -12% | ?
CCOC(=O)C1CCN(C(=O)C(=O)Nc2ccc3nc4n(c(=O)c3c2)CCCCC4)CC1 | -6% | -14%
Cc1ccc(CC(=O)NCCS(=O)c2ccc(C)cc2)cc1 (configuration not stated) | -6% | -29%
Cc1ccc(NC(=O)c2cccc(OCc3c(C)noc3C)c2)cc1 | -15% | -21%
CCOC1=C2CN(S(=O)(=O)c3ccc(C)cc3)C(c3cccc(Cl)c3)CC2N(S(=O)(=O)c2ccc(Cl)cc2)C(c2ccccc2)C1 (configuration not stated) | -7% | -9%
CC(NC(=O)c1ccco1)c1nnc2n1CCN(Cc1ccc(N3CCCC3)cc1)CC2 (configuration not stated) | 1% | -3%
O=[N+]([O-])c1cc(/C=N/N2CCOCC2)cs1 | -5% | -12%
Cc1ncc(N=Nc2ccccc2)c(-c2ccccc2)n1 | -3% | ·

The results go on:
SMILES | Vaccinia Venus | VACV mCherry inh
COc1ccc(NC(=O)c2ccc(NC(=O)c3ccncc3)cc2)cc1 | 2% | -6%
O=C(CN1Cc2ccccc2OC(c2ccsc2)C1)N1CCC(c2nc3ccccc3[nH]2)CC1 (configuration not stated) | -12% | -17%
CC1=CC(c2ccccc2)=NS(=O)(=O)N1 | -6% | -15%
CC(C)C[C@H]1CN(CCCC[C@H]2CNC(=O)C(=O)N2Cc2ccccc2)C(=O)C(=O)N1CCC1CCCCC1 | -4% | -15%
O=C(Nc1nc(=S)ss1)c1ccc(Cl)cc1Cl | -10% | -8%
COc1ccc(NC(=O)CSCC(=O)N(C)CC(=O)Nc2cccc3ccccc23)cc1 | 0% | -14%
CC(=O)Nc1c(O)nc(SCC(=O)Nc2nnc(CC(C)C)s2)[nH]c1=O | -6% | -13%
O=C(Nc1ccc(Cl)cn1)C1CCN(c2ncnc3c2nc2n3CCCCC2)CC1 | ? | -17%

(list continues)
SMILES | Vaccinia Venus | VACV mCherry inh
C/C(=N\NS(=O)(=O)c1ccc([N+](=O)[O-])cc1)c1c[nH]c2ccccc12 | 6% | 0%
CC(C)C[C@@H](CSc1ccccc1)N1CCN(CCc2ccccc2)CCC1=O | -17%&-9% | i
O=C(CN1CCC(C(=O)c2cccc(Cl)c2)CC1)Nc1ccc(C(=O)O)cc1 | -24% | -9%
CCOc1ccc(NC(=O)c2ccc(CSc3nnc(C)s3)cc2)cc1 | 0% | -12%
O=C(Nc1cc2ccccc2oc1=O)c1ccccc1 | 0% | 3%
COc1ccc2[nH]cc(CCNC(=O)Nc3ccc(F)cc3)c2c1 | -9% | -12%
CCOC(=O)C(C)Oc1cccc2c(=O)n(CC(=O)Nc3ccc(OCC)cc3)ccc12 (configuration not stated) | -6% | 0%
COc1ccc2[nH]c3c(c2c1)CCN1C(=O)C(CC(=O)NCCc2ccccn2)C[C@H](C(=O)N2CCOCC2)[C@@]31CCC1CCCC1 (some centres not stated) | -12% | i

(cont.)
SMILES | Vaccinia Venus | VACV mCherry inh
COc1ccc(NC(=O)CCC(=O)NCCO)cc1 | -1% | -16%
CN(C)CCCN(C(=O)c1ccc(S(=O)(=O)N2CCCC2)cc1)c1nc2ccc(Br)cc2s1 | -27% | -13%
CCC(=O)Nc1cccc(C2=NOC3(C2)C[C@H](C(N)=O)N(C(=O)c2ccc(Cl)cc2)C3)c1 (some centres not stated) | -8% | i
CCOc1ccccc1NC(=O)N1CCc2ccccc2C1 | -4% | i
CC(=O)Nc1cccc(NC(=O)c2ccc(C)c([N+](=O)[O-])c2)c1 | -8% | 1%
COc1cccc(-c2nnc(-c3ccccc3NC(=O)c3ccc(C(C)(C)C)cc3)o2)c1 | 23% | -15%
CC1CCN(C(=O)COC(=O)c2cccs2)CC1 | -8% | -13%
O=C(COC(=O)c1ccc2ncsc2c1)Nc1cc(Cl)ccc1F | -5% | -10%

Continued.
SMILES | Vaccinia Venus | VACV mCherry inh
COc1cccc(/C=C/c2ccc3cccc(O)c3n2)c1 | -11% | ?
COc1cc(/C=C/C(=O)OCC(=O)NCCc2ccc(S(N)(=O)=O)cc2)ccc1OCC#N | -6% | -1%
COC(=O)c1cc(NC(=O)CN2CCOCC2)cc(C(=O)OC)c1 | -8% | ·
O=C(NN=Cc1ccc([N+](=O)[O-])cc1)C1CC1 | -13% | -16%
Cc1ccccc1-c1noc(-c2ccc(N3CCOCC3)c([N+](=O)[O-])c2)n1 | 2% | 0%
CC[C@H](C)[C@H](NC(=O)[C@H](C)NC(=O)[C@H](CC(N)=O)NC(=O)[C@H](CCCCN)NC(=O)[C@H](Cc1ccccc1)NC(=O)[C@H](CC(C)C)NC(=O)[C@@H](NC(=O)[C@@H](NC(=O)[C@H](CC(C)C)NC(=O)[C@@H]1CCCN1C(=O)[C@@H](NC(=O)[C@H](CCC(N)=O)NC(=O)[C@H](CO)NC(=O)[C@H](CCCCN)NC(=O)[C@H](CCC(=O)O)NC(=O)[C@H](CO)NC(=O)[C@@H](NC(=O)[C@H](CCSC)NC(=O)[C@H](Cc1ccccc1)NC(=O)CNC(=O)CNC(=O)[C@@H](N)Cc1ccc(O)cc1)[C@@H](C)O)[C@@H](C)O)C(C)C)[C@@H](C)O)C(=O)N[C@H](C(=O)N[C@@H](CCCCN)C(=O)N[C@@H](CC(N)=O)C(=O)N[C@@H](C)C(=O)N[C@@H](Cc1ccc(O)cc1)C(=O)N[C@@H](CCCCN)C(=O)N[C@@H](CCCCN)C(=O)NCC(=O)N[C@@H](CCC(=O)O)C(=O)O)[C@@H](C)CC | -11%[3.33 µM] | -19%[3.33 µM]
CNC[C@@H]1OCc2ccccc2-c2c(n(C)c3ccccc23)C(=O)N([C@H](C)CO)C[C@@H]1C | ? | -19%
CCOC(=O)[C@@H]1[C@H]2COc3ccccc3[C@@H]2N2C(=O)N(c3ccc(Cl)cc3)C(=O)[C@]12C | -19% | i

(listing goes on)
SMILES | Vaccinia Venus | VACV mCherry inh
CCN(CC)c1ncccc1C(=O)NCc1cccs1 | -11% | -15%
COCCN(C(=O)C(C)C)c1nnc(-c2cccc(C)c2)s1 | -8% | -16%
CCOC(=O)CC(NC(=O)CCc1c(C)nc2nc(C)nn2c1C)c1ccc(C)cc1 (configuration not stated) | -5% | i
CCOC(=O)c1c(NC(=O)c2ccc(OCC)c(Br)c2)sc2c1CCCC2 | 1% | -2%
Fc1ccc(NC(=S)NCc2cccnc2)cc1 | -10% | i
Cc1ccc(-n2nc3ccc(NC(=O)c4cccc([N+](=O)[O-])c4C)cc3n2)cc1 | -8% | i
Cc1ccc(NC2CCCN(C(=O)c3ccc(C)c(N4CCNC4=O)c3)C2)cc1C (configuration not stated) | -10% | -15%
O=C(NNC(=O)c1cc(-c2ccc(Cl)cc2)nc2ccccc12)c1csc(N2CCOCC2)n1 | -6% | ?

(next part)
SMILES | Vaccinia Venus | VACV mCherry inh
Cc1nc([N+](=O)[O-])c(C(=O)OCc2ccccc2Br)n1C | -6% | -10%
CC(C)Oc1ccc(/C=C(\C#N)C(=O)NC2CC2)cc1 | -14% | i
C=CC[C@@H](Cc1ccc(F)cc1)C(=O)OC[C@@H]1CCCN1C(=O)[C@@H](CC=C)CC(=O)N(CCO)Cc1ccccc1 | ? | ?
Cc1ccc(C(=O)NCCc2nnc3n2CCN(Cc2cc(C)cc(C)c2)CC3)cc1 | -10% | -14%
Clc1ccc(Cn2ccc3ccccc32)cn1 | 3%&-21% | -14%
O=C(Nc1c(F)c(F)c(F)c(F)c1F)c1ccc(Br)o1 | -16% | -9%
COc1ccccc1NC(=O)NNC(=O)CN1C(=O)COc2ccccc21 | -3% | i
CCCOc1ccc(S(=O)(=O)N2C(=O)CC(=O)N(Cc3ccc(OCC)cc3)C2=O)cc1 | -11% | -15%

Following part
SMILES | Vaccinia Venus | VACV mCherry inh
COc1ccc(/C=C/C2=NN(Cc3ccccc3)C(=O)CC2)cc1 | -9% | -10%
CC(C)NC(=O)c1cn(C2CCCN(C(=O)c3cc4ccccc4oc3=O)C2)nn1 (configuration not stated) | -13% | -8%
O=C(NC1CCCCC1)c1csnn1 | -6% | 0%
COc1cccc(-c2nnn(C/C(N)=N/O)n2)c1 | -1% | -4%
CC1C(=O)N(Cc2cn(CCC3OCCCO3)nn2)CCS(=O)(=O)N1Cc1ccc(-c2ccc(Cl)nc2)cc1 (configuration not stated) | -1% | i

Outcome played no part in choosing rows; any-hit rate near 0.87%.
